Arbovirus anti – arbovirus infection inhibition | hit rate 0.37% among 200,000 | arbovirus infection cell-based antiviral screen | inhibition, % at 10 µM | AID 1251;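 active = inhibition from about 30%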;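 also: bluetongue infection of BSR cells; cell survival read as ATP light after 72 h; 0% = infected wells without compound and 100% = uninfected wells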
RecA splice inh – Mtb RecA intein splicing inhibition | P9WHJ3 | cell-free RecA intein splicing, fluorescence | inhibition, %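 (about 9 µM by stock and volumes)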 | hit rate 0.75% among 290,000 | AID 2221; in the data active = inhibition above about 30%; inconclusive = no clear call, values can overlap the other calls;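 also: 0% = vehicle wells and 100% = reference inhibitor control wells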
Target sequence (P9WHJ3 whole entry, looked up, canonical isoform): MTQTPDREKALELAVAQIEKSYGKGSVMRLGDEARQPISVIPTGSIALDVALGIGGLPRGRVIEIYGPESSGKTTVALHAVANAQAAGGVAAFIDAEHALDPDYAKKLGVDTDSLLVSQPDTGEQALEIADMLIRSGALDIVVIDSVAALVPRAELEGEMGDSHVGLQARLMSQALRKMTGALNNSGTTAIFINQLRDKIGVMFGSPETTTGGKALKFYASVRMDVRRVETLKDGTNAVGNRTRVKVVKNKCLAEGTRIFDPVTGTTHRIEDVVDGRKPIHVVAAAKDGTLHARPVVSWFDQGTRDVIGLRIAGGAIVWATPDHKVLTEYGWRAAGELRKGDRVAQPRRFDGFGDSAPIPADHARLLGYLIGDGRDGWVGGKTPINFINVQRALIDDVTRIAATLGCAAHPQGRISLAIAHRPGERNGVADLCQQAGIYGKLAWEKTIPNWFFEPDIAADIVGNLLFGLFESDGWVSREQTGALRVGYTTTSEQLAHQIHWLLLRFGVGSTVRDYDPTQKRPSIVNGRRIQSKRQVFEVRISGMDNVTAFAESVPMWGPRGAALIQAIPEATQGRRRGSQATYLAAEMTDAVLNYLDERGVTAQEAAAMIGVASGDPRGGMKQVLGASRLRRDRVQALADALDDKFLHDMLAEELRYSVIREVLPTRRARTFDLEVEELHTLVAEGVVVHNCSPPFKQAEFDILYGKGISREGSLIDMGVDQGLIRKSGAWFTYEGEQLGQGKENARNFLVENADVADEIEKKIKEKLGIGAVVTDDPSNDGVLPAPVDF
Mtb H37Rv – M. tuberculosis H37Rv growth inhibitors, H37Rv strain (AID 1626) | M. tuberculosis H37Rv growth inhibition; higher % means a stronger effect | inhibition, % at 10 µM; hits with a dose series show IC50 in µM | hit rate 0.95% among 220,000;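 active = confirmed in a dose series; inconclusive = inhibition above 80% but not taken into the dose series; inactive = below 80% or under 30% at every dose of the series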;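 also: bacteria incubated seven days before Alamar blue readout; 0% = bacteria only wells and 100% = bacteria with antibiotic wells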
YopH inh – blocks Yersinia enterocolitica YopH tyrosine phosphatase | fluorescence Ex485/Em525 | inhibition, %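 (about 10 µM by stock and volumes)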 | hit rate 0.16% among 140,000;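 active = inhibition of 50% or more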;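 also: controls were vehicle for no effect and minimum signal wells for full effect; inactives centre near -20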
Mtb bLac sens – beta-lactam sensitization of Mtb H37Rv. inhibition, % at 25 µM. M. tuberculosis H37Rv growth with meropenem, percent inhibition; hits of this screen are not shown here. hit rate 0.27% among 330,000;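 active = about 74% or more and at least 40 points above the plate without the antibiotic, then above 30% in a dose series; inconclusive = first-round hits that could not be retested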;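 also: growth measured after seven days incubation then overnight dye step; 0% = bacteria only wells and 100% = bacteria with antibiotic; twin plates without the antibiotic show which effects depend on it; some results filed as inactive read as strong as hits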
Arbovirus anti repeat – also measured in Arbovirus anti; calls as there; inhibition, %; measured here: 10K subset replicate screen; many hits read low in the repeat;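 first of two repeat runs on a subset; 0% = infected and 100% = uninfected wells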
The depositor's hits bear a star; ? = inconclusive; . = not tested or not shown.

SMILES	Arbovirus anti	RecA splice inh	Mtb H37Rv	YopH inh	Mtb bLac sens	others
O=C(O)/C=C/C(=O)N1CCN(C(c2ccccc2)c2ccccc2)CC1	.	1.2	-6%	.	-2
NC1=NC(c2cccc(Cl)c2)N(CCc2ccc(F)cc2)C(N)=N1 (stereo unspecified)	.	1.2	.	.	6
COc1ccc(NC(=O)COC(=O)c2cc(OC)c(OC)cc2NC(=O)c2ccco2)cc1OC	11	-3.8	4%	-31	12
COc1ccnc(Nc2ccc(C)c(C)c2)c1C#N	6	1.6	1%	-13	-1
COc1cccc(C2=NN(C(=O)CCCC(=O)O)C(c3cccs3)C2)c1 (stereo unspecified)	.	1.2	0%	.	-1
O=C(Cn1cnc2c(oc3ccccc32)c1=O)NCc1ccccc1	-2	0.3	8%	-33	-5
Cc1c(CC(=O)O)c(=O)oc2c(C)c3occ(-c4ccccc4)c3cc12	.	0.2	.	.	0
O=C(Cc1ccc(Cl)cc1)NCCN1CCN(C(=O)Cc2ccc(Cl)cc2)CC1	.	0.2	.	.	-3
COc1ccccc1C(=O)NC(CCSC)C(=O)NC1CCCCCC1 (stereo unspecified)	-5	-0.3	6%	.	-2
O=C(O)CCc1nn2c3ccccc3n(CC(=O)c3ccccc3)c2nc1=O	11	2.4	2%	-40	5
CN(C)S(=O)(=O)Oc1ccsc1C(=O)Nc1cccc(Cl)c1	5	-0.6	6%	-38	4
Cc1ccc(C(=O)N/C(=C\c2ccc(Br)cc2)c2nc(=S)[nH][nH]2)cc1	-33	0.2	5%	19	93
O=C(NCC1CCCO1)C1CCN(S(=O)(=O)N2CCCC2)CC1 (stereo unspecified)	2	1.6	-7%	-26	-3
COc1ccc(OC)c(C(c2nnnn2C2CCCC2)N2CCN(c3ccccc3F)CC2)c1 (stereo unspecified)	-9	13	10%	-48	1
O=C1/C(=C\c2ccc(-c3ccccc3Cl)o2)SC(=S)N1CC1CCCO1 (stereo unspecified)	-3	7.6	10%	-8	-7
CCn1c(NCc2ccco2)nc2c1c(=O)n(C)c(=O)n2C	4	3.9	-3%	6	-16
CCN(CC(=O)NCc1cccs1)S(=O)(=O)c1ccc([N+](=O)[O-])cc1	3	-2.3	1%	.	-9
C=CCN(Cc1cc(OC)ccc1OC)C(=O)c1cc2ccc(OC)cc2[nH]1	.	-2.4	.	.	-3
COc1ccc(CCNc2oc(-c3cccc4ccccc34)nc2P(=O)(OC)OC)cc1OC	1	-6.6	2%	-22	-3
Clc1ccc(CN2CCC(Cc3ccccc3)CC2)cc1	9	0.4	5%	-17	-4
C=CCNC(=O)CC(=O)N/N=C/c1ccccc1F	5	-0.4	-3%	1	11
Cc1ccc(C(=O)N2CCN(C(=O)CN3CCCC3)C2)cc1	19	.	-3%	-38	-14
CN1CCN(Cc2oc(CO)cc(=O)c2O)CC1	5	-1.1	5%	-17	-6
Cc1ccc(C)c(N2CCN(CCCNC(=O)Cn3cc4c(n3)CCC(C)C4)CC2)c1 (stereo unspecified)	-26	1.8	.	-16	?	Arbovirus anti repeat=-17
O=c1[nH]nc2c3ccccc3cnn12	7	-5.1	-19%	-21	-7
CCCCN(C)CCCNC(=O)CCn1nc(-c2ccccc2)ccc1=O	2	0.5	.	-15	-15
CCCCC(=O)NC(NC(=O)CCCC)c1ccc(OCCC)c(OC)c1	-3	-5.6	-6%	-15	5
O=C(COC(=O)c1cccc(S(=O)(=O)N2CCc3ccccc32)c1)Nc1ncc(Cl)cc1Cl	-1	-1.0	-4%	-31	3
CCOc1cc(S(=O)(=O)Nc2ccncc2)ccc1F	.	-3.9	.	.	-4
CCc1ccccc1NC(=O)CSc1nc(C)c(C)o1	.	4.9	.	.	-6
O=C(CN1CCOCC1)NN=C1CCCCCCCCCCC1	-1	0.1	-4%	-23	2
COc1cccc(COC(=O)C2CCN(S(=O)(=O)c3cccs3)CC2)c1OC	.	4.8	.	.	-3
Cc1ccc(C(=O)NC2CCCCC2)cc1S(=O)(=O)N1CCCC1	.	1.2	.	.	?
Cc1nc(-c2ccc(F)cc2)c(CC(=O)N(C)CC(=O)Nc2ccccc2Br)s1	.	-1.9	.	.	4
CCOc1ccc(CC2c3cc(OCC)c(OCC)cc3CCN2C(=O)c2cc(OC)c(OC)c(OC)c2)cc1OCC (stereo unspecified)	-1	0.4	-2%	-12	3
CNC[C@H](CC1CCCCC1)NC[C@H](CO)NCC1(c2ccccc2)CC1	.	0.3	.	.	-10
CC(C)(C)NC(=O)C1c2ccccc2Oc2ccccc21	.	-0.8	.	.	-2
CCCn1c(C(C)Nc2nc(-c3cc(Cl)c(N)c(Cl)c3)cs2)nc2cc(Cl)c(N3CCCCC3)cc21 (stereo unspecified)	.	-0.2	.	.	64
O=C(Nc1ccccc1Cl)N1CCCN(c2nc(-c3ccccc3)ns2)CC1	.	9.8	-9%	.	-7
CCCCc1ccc(NC(=S)NCc2cccc(OC)c2)cc1	4	10.0	30%	.	41

Gathered by group: the compounds so far with a COOH group
SMILES	Arbovirus anti	RecA splice inh	Mtb H37Rv	YopH inh	Mtb bLac sens	others
O=C(O)/C=C/C(=O)N1CCN(C(c2ccccc2)c2ccccc2)CC1	.	1.2	-6%	.	-2
COc1cccc(C2=NN(C(=O)CCCC(=O)O)C(c3cccs3)C2)c1 (stereo unspecified)	.	1.2	0%	.	-1
Cc1c(CC(=O)O)c(=O)oc2c(C)c3occ(-c4ccccc4)c3cc12	.	0.2	.	.	0
O=C(O)CCc1nn2c3ccccc3n(CC(=O)c3ccccc3)c2nc1=O	11	2.4	2%	-40	5

Following part
SMILES	Arbovirus anti	RecA splice inh	Mtb H37Rv	YopH inh	Mtb bLac sens	others
COC(=O)c1cc(NS(=O)(=O)c2ccc(NC(C)=O)cc2)cc(C(=O)OC)c1	-3	0.8	-16%	-7	-5
Cn1c(Cc2csc(N)n2)nnc1SCC(=O)NCc1ccccc1	-6	-3.3	-5%	-27	-7
Cc1cc(S(=O)(=O)NCC(c2ccccc2)c2ccccc2)ccc1-n1cnnn1	11	4.3	6%	-18	-11
COc1ccc(C2NC(=O)C(C#N)=C(S)N2c2ccc(C)cc2)cc1OC (stereo unspecified)	4	1.2	3%	.	5
CC(=O)NNC(=O)CCn1c2c(c3ccccc31)CCCC2	.	-1.1	8%	.	-1
CC1CC(C)CN(C(=O)CSc2nnc(N)s2)C1 (stereo unspecified)	.	0.9	.	.	1
COc1ccc(NC(=O)c2cnc3n(c2=O)CCS3)cc1OC	3	1.8	-2%	-4	-3	Arbovirus anti repeat=2
Cc1cc(C)c2c(N)c(C(=O)C(C)(C)C)sc2n1	-1	-6.5	5%	.	4
CCC1CCc2sc(C(=O)O)cc2C1 (stereo unspecified)	4	8.9	5%	-33	32
COc1ccc(Oc2nccc(-c3ccc(Cl)cc3)n2)cc1	-2	1.0	-1%	4	-3
COCCNC(=O)c1nn2c(C(F)(F)F)cc(-c3ccccc3)nc2c1Cl	.	-2.5	.	.	2
COc1cccc(C2c3[nH]c4ccccc4c3CCN2C(=O)Cn2cncn2)c1OC (stereo unspecified)	2	1.2	-4%	.	-4
CN(CC(=O)Nc1ccccc1Cl)C(=O)COC(=O)CCN1C(=O)C2CC=CCC2C1=O (stereo unspecified)	.	6.0	.	.	-4
COC(=O)C1=CN(C2CCCCC2)C=C(C(=O)OC)C1c1ccc2c(c1)OCO2	-3	-4.3	-6%	.	3
COCCN(CCOC)C(=O)c1ccc(NS(=O)(=O)c2ccc3[nH]c(=O)[nH]c3c2)cc1	.	0.4	.	.	0
COc1ccc(S(=O)(=O)Nc2cc3c4c(oc3c3ccccc23)CCCC4=O)cc1	-3	.	-6%	-12	-10
O=C(CCc1n[nH]c(=O)[nH]c1=O)Nc1cccc([N+](=O)[O-])c1	-2	0.3	0%	.	6
C[C@@]12C(=O)N(c3ccc(C(F)(F)F)cc3)C(=O)N1[C@@H]1c3ccccc3OC[C@@H]1[C@H]2c1ccccc1	.	4.3	.	.	-11
CCOC(=O)Cc1csc(SCC(=O)Nc2sc3c(c2C(N)=O)CCC3)n1	-2	3.0	-8%	-47	7
COC(=O)C1=C(C)N(Cc2ccco2)C(=O)N[C@@H]1c1ccc(Br)cc1	.	0.4	-12%	.	-7

Three records drawn at random from the list so far:
SMILES	Arbovirus anti	RecA splice inh	Mtb H37Rv	YopH inh	Mtb bLac sens	others
CCc1ccccc1NC(=O)CSc1nc(C)c(C)o1	.	4.9	.	.	-6
COc1ccc(S(=O)(=O)Nc2cc3c4c(oc3c3ccccc23)CCCC4=O)cc1	-3	.	-6%	-12	-10
C[C@@]12C(=O)N(c3ccc(C(F)(F)F)cc3)C(=O)N1[C@@H]1c3ccccc3OC[C@@H]1[C@H]2c1ccccc1	.	4.3	.	.	-11

Next part:
SMILES	Arbovirus anti	RecA splice inh	Mtb H37Rv	YopH inh	Mtb bLac sens	others
Cc1nn(Cc2ccc(Cl)cc2)c(Cl)c1/C=N/NC(=O)CNc1ccccc1F	-17	2.1	13%	10	25
O=C(O)CCCCNS(=O)(=O)c1ccc(Cl)c(C(F)(F)F)c1	1	-0.5	8%	-42	?
Cc1csc2nc(CSc3nncn3-c3ccccc3)c(Br)n12	3	1.8	-12%	-5	-4
COC(=O)CCC(=O)NNC(=O)Cc1ccccc1	1	1.4	-6%	.	8
O=C(Nc1ccc(S(=O)(=O)N2CCOCC2)cc1)c1c(F)cccc1F	.	-4.3	.	.	10
Cc1ccc(NC(=O)Cn2nc(C(=O)Nc3ccc(C)cc3)ccc2=O)cc1	.	1.6	.	.	2
COc1ccc(/C=C/CN2CCCC(CO)(Cc3cccc(Cl)c3)C2)cc1 (stereo unspecified)	-36	5.8	3%	.	3
CC(C)(C)C(=O)N=C1SC2CS(=O)(=O)CC2N1c1ccc2c(c1)OCO2 (stereo unspecified)	2	2.7	-4%	8	-19
O=C(c1ccc(F)cc1)N1CCC(n2nnc3ccccc32)CC1	6	.	-7%	.	6
O=C(NCc1ccccc1)C1CC(=O)N(C2CCCCCC2)C1 (stereo unspecified)	1	-0.2	-5%	.	11
COC(=O)Cn1cnc2c(C#N)c3n(c2c1=O)CCCC3	3	4.0	-10%	-2	-10
Cc1nnc(SCC(=O)N2CCc3ccccc32)n1-c1ccccc1	-8	0.6	-15%	-16	-7
C/C(=N\NC(=O)c1ccc(CSc2nc(C)cc(C)n2)cc1)C1CCCCC1	-7	0.9	0%	-27	10
CN(CC(=O)Nc1ccc(C#N)cc1)Cc1ccc(Cl)c(Cl)c1	-6	9.9	11%	-31	-11
O=C(NC1CCCc2ccccc21)c1ccc(F)cc1F (stereo unspecified)	.	-0.4	.	.	-5
COc1ccc(NC(=O)C(=S)N2CCCC2)cc1	6	7.0	4%	.	2
COc1ccc2[nH]c(=O)c(NC(N)=S)nc2c1	-3	-5.0	-17%	-37	-9
COn1c(C)c(C(C)=O)c2c3no[n+]([O-])c3ccc21	2	4.6	-3%	-20	-8
CSc1nnc(-c2cc(C)on2)n1-c1ccccc1	14	3.0	1%	-10	.
COCCCN1C(=O)c2ccccc2C1C(=O)NC1CCCCCC1 (stereo unspecified)	3	-5.0	-5%	-41	?
CC1CC(C)CN(C(=O)CSc2nc(Cc3cccs3)nc3ccccc23)C1 (stereo unspecified)	18	3.4	1%	-1	13
CCn1c(SCC(=O)N2CCCCC2)nc2c(c1=O)SCC2	.	-0.6	.	.	-7
O=C(COC(=O)COc1cccc(F)c1)NCCC1=CCCCC1	-2	.	1%	.	-8
CCCOC(=O)c1ccc(NC(=O)C(=O)NCC2CCCO2)cc1 (stereo unspecified)	1	0.5	39µM*	-16	85
C=CCOc1ccc(/C(O)=C2\C(=O)C(=O)N(CCCOC)C2c2ccncc2)cc1 (stereo unspecified)	9	0.9	.	-26	27
CNc1nc(Nc2ccc(C)c(Cl)c2)nc(N)c1[N+](=O)[O-]	21	1.4	22%	1	75
Cc1ccc(C(=O)OC2=CC(=O)CC(C)(C)C2)cc1	-6	-1.6	4%	-37	15
CCCCC(=O)NCc1ccc(Cl)cc1	4	0.9	8%	-8	1
O=C(NCCCN1CCCCC1)c1ccc2c(c1)ncn2C1CCCC1	.	-1.0	.	.	5
Cc1nn(C)c(C(=O)N2CCc3ccccc32)c1Br	-8	-1.7	8%	-13	-3
CC(=O)c1c(C(C)=O)c(C)n(-c2ccc(O)cc2)c1C	-2	.	-7%	-13	1
Cc1cccc(NC(=O)CN2CCCCCC2)c1	.	-1.8	.	.	-6
CC(=O)Nc1ccc(S(=O)(=O)NCCC(=O)OCC(=O)N2CCN(C(=O)c3ccco3)CC2)cc1	.	5.2	.	.	-17
O=C(Nc1ccccc1O)c1ccc(NS(=O)(=O)c2cccc3cccnc23)cc1	-3	5.1	.	.	2
C(=NC12CN3CN(CN(C3)C1)C2)c1cccnc1	0	.	-6%	-43	-14

A portion of the library; the hit share may differ from the screen's.
